miR-21 reporter – miR-21 reporter, rising signal | AID 2288 | Potency, µM (series often up to 38.3 µM), inactives show top-dose reporter change, positive = more light | 340,000 tested, under 10 active | HeLa miR-21 FLuc reporter, luciferase, 48 h; active = well fitted rising curve with a large enough effect; inconclusive = small, poorly fitted or top-dose-only effect; inactive = no such curve, though single readings can be large or run the other way;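 note: % of control where 0% means no effect; miR-21 action dims this reporter so a rising signal means less miR-21 action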
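Luminescence from a firefly luciferase reporter carrying a miR-21 binding site downstream, stably expressed under a CMV promoter in HeLa cells that make miR-21 endogenously, reports miRNA modulation after 48 h compound exposure up to approximately 40uM final.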
Rango complex inh – prevents formation of the Rango-importin beta complex; Rango CFP/YFP FRET sensor + importin beta, 45 min; 340,000 tested, 0.031% active; Potency, µM (series often up to 92.2 µM), without a hit: top-dose inhibition of complex formation; active = rising FRET ratio curve, often small or poorly fitted; inconclusive = mostly compound fluorescence or quenching in the first reads; inactive = flat curves in all reads;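 note: potency is the fitted concentration of half-maximal effect; 0% = DMSO wells and 100% = buffer wells lacking importin beta; nearly all actives have a fitted effect of over 15% in size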
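FRET biosensor (snurportin 1 IBB flanked by EYFP and cerulean), 50 nM, with compound 5 min, then 0.125 microM importin beta in PBS, 1 mM DTT, 0.02% Tween-20, 0.1% BSA. CFP/YFP ratio read after 45 min at room temperature; pre-read flags interference.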
GLA inh pH 4.5 – blocks human alpha-galactosidase A at pH 4.5; P06280; purified enzyme, 4-MU-alpha-Gal fluorescence, pH 4.5; activity change, negative = inhibition, % at 105 µM; 230,000 tested, under 10 active; AID 1467; inconclusive = small, poorly fitted or top-dose-only inhibition, or a rising curve; inactive = flat fitted curve, though single readings scatter; no compound was filed as active;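 note: 0% = full activity with enzyme and -100% = basal without enzyme; dose as in the result columns while the protocol names 77 µM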
Target sequence (P06280 whole entry, looked up): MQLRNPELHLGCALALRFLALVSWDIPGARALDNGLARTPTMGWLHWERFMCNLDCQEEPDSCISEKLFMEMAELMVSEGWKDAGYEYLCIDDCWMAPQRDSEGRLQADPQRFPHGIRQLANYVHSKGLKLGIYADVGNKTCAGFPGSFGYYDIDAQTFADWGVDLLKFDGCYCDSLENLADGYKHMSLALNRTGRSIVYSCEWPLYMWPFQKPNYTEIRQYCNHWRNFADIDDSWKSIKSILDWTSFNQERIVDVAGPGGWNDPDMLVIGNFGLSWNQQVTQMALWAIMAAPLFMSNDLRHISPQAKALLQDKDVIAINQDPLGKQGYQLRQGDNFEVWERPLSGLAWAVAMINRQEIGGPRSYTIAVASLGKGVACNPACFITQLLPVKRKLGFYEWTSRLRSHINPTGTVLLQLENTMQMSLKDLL
Rango dissoc inh – prevents RanGTP from dissociating the Rango-importin beta complex. O95149+P62826. Biochemical FRET Rango-importin beta, RanGTP-induced dissociation. Potency, µM (doses to about 46.1 µM), without a hit: at the top dose activity change, negative = inhibition. 340,000 tested, 0.071% active. AID 540253; active means falling FRET ratio curve, often poorly fitted, with flat reads before Ran was added; inconclusive means other falling curves, or compound fluorescence or quenching; inactive means flat or rising ratio curve;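 note: potency is the fitted concentration of half-maximal effect; % of control where 0% means no effect; nearly all actives have a fitted effect of over 45% in size; -100% = wells without RanGTP and RCC1; the record marks most hits as doubtful in a second field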
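FRET read at 45 min, room temperature: inhibitors block the CFP/YFP signal rise when RanGTP (0.6 uM Ran, 2 mM GTP, 0.2 uM RCC1) frees Rango (0.1 uM) from importin beta (0.25 uM). Pre-read after 5 min compound exposure flags interference.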
* = called active by the depositor; ? = inconclusive; . = not tested or not shown; & = joins results of further samples.

Under each structure – miR-21 reporter, Rango complex inh, GLA inh pH 4.5, Rango dissoc inh
1	CCCCn1c(N)c(N(CCOC)C(=O)CN2C(=O)NC3(CC(C)CC(C)(C)C3)C2=O)c(=O)[nH]c1=O (stereo not drawn)
→ ., -4.9%, ., -21%
2	CC1=C(C(=O)Nc2ccccn2)C(c2ccc(Br)cc2)n2ncnc2N1 (stereo not drawn)
→ -15%, ?, 7, 2%
3	CCOC(=O)C1CCCN(C(=O)c2cnn3c(C(F)F)cc(-c4ccc(C)cc4)nc23)C1 (stereo not drawn)
→ 13%, ?, -13, -4%
4	CCc1cccc(C)c1NC(=O)COC(=O)C1CC(=O)N(CCc2ccc(OC)c(OC)c2)C1 (stereo not drawn)
→ ., 2.4%, ., 9%
5	Cc1ccc2nc(Cl)c(CN(Cc3cccs3)C(=O)C3CC3)cc2c1
→ 17%, -4.4%, 2, 0%
6	N#Cc1c2n(c3c(=O)[nH]cnc13)CCCC2
→ 2%, -0.4%, 4, 15%
7	CCCNC(=O)C(Cc1cccc(Cl)c1)NC(=O)c1ccc(C#N)cc1 (stereo not drawn)
→ ., -4.6%, ., -5%
8	Cc1nn(-c2ccccc2)c(C)c1-c1nnc(-c2c(C)nn(-c3ccccc3)c2C)o1
→ -3%, 5.0%, -14, -2%
9	CCOc1cc(C#N)c(NC(=O)c2ccnn2C)cc1OCC
→ -11%, -4.1%, 7, 11%
10	N#C/C(=C/c1ccc2c(c1)OCO2)C(=O)Nc1ccc(O)cc1
→ 1%, 1.6%, 0, 8%
11	Cn1nnnc1SCC(=O)Nc1ccccc1-c1ccccc1
→ -15%, 0.9%, -1, -1%
12	Cc1c(Cl)cccc1NC(=O)CNc1cccc(C(F)(F)F)c1
→ 0%, 0.4%, -5, 1%
13	COC(=O)C1(C(=O)OC)NOC2C(=O)N(N(C)c3ncc(C(F)(F)F)cc3Cl)C(=O)C21 (stereo not drawn)
→ 3%, -0.2%, 3, -13%
14	COC(CC(=O)NNC(=S)Nc1ccc(Cl)cc1)OC
→ -5%, 3.1%, -9, 5%
15	O=c1c(Br)c(N2CCCCC2)cnn1-c1ccccc1
→ -42%, 0.0%, 1, 2%
16	CC(Sc1nc(N)cc(N)n1)C(=O)Nc1ccc(N2CCOCC2)cc1 (stereo not drawn)
→ ., 0.6%, ., -12%
17	CS(=O)(=O)NCCNc1ccc(Cl)cc1[N+](=O)[O-]
→ -6%, 3.9%, 0, -17%
18	COc1ccccc1C(=O)C1CCCN(C(=O)c2cccc(Cn3cccn3)c2)C1 (stereo not drawn)
→ 3%, 6.4%, ., -1%
19	NC(=O)CN1C(=O)C(O)(CC(=O)/C=C\c2ccc3c(c2)OCO3)c2ccccc21 (stereo not drawn)
→ 24%, 1.5%, -11, -3%
20	Cn1c(=O)c([N+](=O)[O-])c(NCc2ccc3c(c2)OCO3)c2ccccc21
→ -16%, 0.6%, -4, 0%
21	N/C(=N\OC(=O)c1ccc(Cl)cc1[N+](=O)[O-])c1ccccn1
→ -38%, 0.0%, ., 14%
22	CN(CCc1ccccc1)C(=O)c1ccc(NC(=O)Cc2ccc(NC(=O)C3CCN(C(=O)c4ccccc4)CC3)cc2)cc1
→ ., -2.7%, ., ?
23	COc1ccc(CC(=O)Nc2ccc(S(=O)(=O)Nc3cc(OC)nc(OC)n3)cc2)cc1
→ -11%, 0.5%, ., -4%
24	CCCCN(CCCC)C(=O)c1cc(Cl)ccc1[N+](=O)[O-]
→ 15%, 3.9%, -3, 1%
25	COCCN(CCOC)C(=O)c1ccc(NS(=O)(=O)c2ccc3c(c2)OCCO3)cc1
→ 0%, -1.3%, ., 1%
26	CN(C)c1ccc(C2CC(=O)NC3=C2C(=O)CC(C)(C)C3)cc1 (stereo not drawn)
→ -2%, ?, 2, -26%
27	Cc1ccnc2nc(C(=O)OCC(=O)N(Cc3ccccc3)C(C)(C)C)nn12
→ ., 1.7%, ., 16%
28	O=C(c1ccc(N2CCN(CCO)CC2)nc1)N1CCOCC1
→ -14%, 0.7%, -2, 20%
29	Cn1c(C=O)c(C#CC(C)(C)O)c2ccccc21
→ ., ?, ., -14%
30	COc1cc(-c2n[nH]c(=S)n2Cc2ccccc2)cc(OC)c1OC
→ -4%, -0.2%, ., 0%

Three compounds drawn at random from those above, as already listed:
Under each structure – miR-21 reporter, Rango complex inh, GLA inh pH 4.5, Rango dissoc inh
21	N/C(=N\OC(=O)c1ccc(Cl)cc1[N+](=O)[O-])c1ccccn1
→ -38%, 0.0%, ., 14%
23	COc1ccc(CC(=O)Nc2ccc(S(=O)(=O)Nc3cc(OC)nc(OC)n3)cc2)cc1
→ -11%, 0.5%, ., -4%
26	CN(C)c1ccc(C2CC(=O)NC3=C2C(=O)CC(C)(C)C3)cc1 (stereo not drawn)
→ -2%, ?, 2, -26%

(further entries)
Under each structure – miR-21 reporter, Rango complex inh, GLA inh pH 4.5, Rango dissoc inh
31	O=C(c1ccc(N2CCCC2)c([N+](=O)[O-])c1)N1CCN(S(=O)(=O)c2ccccc2)CC1
→ ., 6.6%, ., 11%
32	O=C1C=C(c2ccccc2)C(c2ccccc2)C1O (stereo not drawn)
→ ., 0.0%, ., 2%
33	CC1=CC[C@@]23CCCN2C(=O)CCC[C@H]3C1
→ ., -5.8%, 4, -9%
34	COc1cccc(CNC(=O)C2CCCN(S(C)(=O)=O)C2)c1 (stereo not drawn)
→ 12%, 1.8%, -1, 1%
35	COc1ccc(C(=N/O)/C(=N/O)c2ccc(OC)cc2)cc1
→ -7%, -5.8%, -6, 18%
36	O=C(COc1cccc(C(F)(F)F)c1)NNC(=O)c1ccc(=O)[nH]c1
→ ., -2.5%, ., 13%
37	COc1cccc(C(c2sc3ncnn3c2O)N2CCc3ccccc3C2)c1 (stereo not drawn)
→ -1%, 1.7%, 1, -1%
38	O=C1CCC[C@@H]2Cc3nc4ccc(Cl)cc4cc3[C@@H]3CCN1[C@H]23
→ ., -3.2%, ., -3%
39	O=C(Nc1ccc(Oc2cccc(C(F)(F)F)c2)nc1)c1ccccc1
→ 15%, 0.0%, 1, -7%
40	CC(=O)Nc1ccc(NC(=S)NC(=O)c2cc3ccccc3o2)cc1
→ -24%, -0.2%, -16, 2%
41	CCOc1ccc(N(C)S(=O)(=O)c2cc(-c3cc(C)no3)ccc2OC)cc1
→ 2%&11%, -0.7%, ., -2%
42	CCCN1CCN(C(=O)Cn2nc(C)n3c(cc4c(OC)cccc43)c2=O)CC1
→ ., -2.2%, ., 0%
43	Cc1cc(SCC(=O)N(C)C2CCS(=O)(=O)C2)nc2c(C)cccc12 (stereo not drawn)
→ 3%, -0.2%, 7, 1%
44	Cc1nc2ccc(S(=O)(=O)NCC(=O)N3CCC(C)CC3)cc2s1
→ -3%, -4.0%, 2, 4%
45	O=C(Nc1nc2c(s1)CCc1ccccc1-2)c1ccco1
→ -25%, 5.5%, 0, -8%
46	C/C(CC(=O)Nc1ccccc1Br)=N\NC(=O)C(=O)N1CCCC1
→ -2%, 2.3%, 3, -3%
47	COC(=O)C1=C(C)N(Cc2ccccc2)C(=O)/C1=C\c1ccco1
→ -2%, -0.6%, ?, 0%
48	O=C(c1cc(-c2cccc(Cl)c2)nc2ccccc12)N1CCN(c2ccccn2)CC1
→ 18%, 0.4%, ., 16%
49	O=[N+]([O-])c1cccc(CN2C[C@@]34C=C[C@@H](C[C@@H]3S2(=O)=O)O4)c1
→ 3%, 0.1%, ., -1%
50	CCN(C[C@H]1N[C@@](CC)(C(=O)OC)[C@H]2C(=O)N(C)C(=O)[C@@H]12)C(=O)c1ccccc1
→ ., 0.0%, ., -3%
51	O=C(N/N=C/c1ccco1)c1cccc(NC(=O)c2cccc(Cl)c2)c1
→ -17%, 2.1%, ., -12%
52	C=CCNC(=O)C1CCN(S(=O)(=O)c2cccs2)CC1
→ -1%, ?, ., 3%
53	Cc1cccc(CN2CCN(CC(=O)O)C2=O)c1
→ -3%, ?, -1, 4%
54	OC(COCC1COc2ccccc2O1)CN1CCCCC1 (stereo not drawn)
→ -9%, ?, -3, -2%
55	Cc1ccc2c(CN(C)Cc3ccc(OC(F)F)cc3)cc(=O)oc2c1C
→ 0%, 0.0%, ., 2%
56	O=C(COC(=O)/C=C/c1ccco1)Nc1ccccc1
→ -11%, 0.1%, -1, ?
57	C=CCN(c1ccccc1)S(=O)(=O)c1cccc(C(=O)NCc2ccco2)c1
→ ., -0.4%, ., -6%
58	CS(=O)(=O)N(CC(=O)NCc1ccc2c(c1)OCO2)c1ccccc1
→ -19%, -3.2%, -17, -2%
59	Cc1cc(C(=O)CN2C(=O)C(=O)N(C3CCCC3)C2=O)c(C)n1-c1ccc(F)cc1
→ -9%, 4.4%, 7, ?
60	CCN(CC(=O)Nc1ccc(NC(C)=O)cc1)C(=O)/C=C/c1cn(-c2ccccc2)nc1-c1ccc(C)cc1
→ 0%, 0.5%, ., -14%
61	Cc1nn(CC(=O)N2CCCC2)c(=O)c2cc3cc(F)ccc3n12
→ -3%, 0.3%, ., 1%
62	CCC(C(=O)OCCN(CC)CC)c1ccccc1 (stereo not drawn)
→ 2%, -0.7%, ., 7%
63	Cc1onc(-c2c(Cl)cccc2Cl)c1C(=O)NC(=S)N1CCOCC1
→ 4%, -2.5%, -6, -1%
64	O=C(N/N=C1\CCCc2ccccc21)c1ccc([N+](=O)[O-])cc1Cl
→ -3%, 1.1%, 2, -14%
65	S=c1[nH]nc(-c2ccncc2)n1/N=C/C=C/c1ccccc1
→ -1%, 1.4%, -4, 0%
66	Cc1ccc(C2(c3ccc(C)cc3)CC2C(=O)NCc2cccnc2)cc1 (stereo not drawn)
→ 0%, -2.8%, -5, -6%
67	CCOc1ccc(/C=N/NC(=O)C(=O)N2CCCCCC2)c2ccccc12
→ -7%, 1.1%, ., -7%
68	Cc1ccc(CNC(=O)CCNS(=O)(=O)c2cccc3nsnc23)cc1
→ -1%&1%, -2.4%, ., -6%
69	CC(C)NCc1nnc(-c2ccccc2Cl)o1
→ -15%, 5.2%, -4, -1%
70	CCCc1cc(=O)oc2cc(C)c3c(C)coc3c12
→ 0%, -6.6%, 9, -11%

Looked up above:
cpd 67 | Rango dissoc inh: -7%
cpd 62 | Rango complex inh: -0.7%

Additional records:
Under each structure – miR-21 reporter, Rango complex inh, GLA inh pH 4.5, Rango dissoc inh
71	CCN1CCN(C(=S)Nc2cccc(Cl)c2)CC1
→ -7%, 0.8%, 5, 28%
72	COc1cc(O)c(C(C)=O)cc1OC
→ 0%, 3.5%, -23, -16%
73	CCOc1ccc(NC(=O)CSc2nnc(COc3c(C)cccc3C)o2)cc1
→ -6%, -2.8%, 6, -10%
74	CCN(CC)S(=O)(=O)c1cccc(-c2nnc(SCCOc3ccccc3C)o2)c1
→ -6%, -6.6%, -11, 15%
75	O=C(NCc1ccco1)C1CC(=O)N(c2cccc(Cl)c2)C1 (stereo not drawn)
→ 2%, -1.3%, ., -4%
76	O=C(c1cccc(NC2=NC3CS(=O)(=O)CC3S2)c1)N1CCN(c2ncccn2)CC1 (stereo not drawn)
→ 2%, -2.2%, ., 13%
77	CCCCN(CC)CCCNC(=O)c1ccc(CS(=O)(=O)c2ccccc2C)o1
→ 0%, 0.0%, ., -5%
78	COc1ccc(/C(N)=N/OC(=O)c2ccco2)cc1
→ 0%, 0.3%, 2, 14%
79	C=CCOc1ccccc1CN1CCC(Oc2ccc(C(=O)N3CCCCC3)cc2)CC1
→ 11%, -1.2%, ., -3%
80	CCOC(=O)C1=C(C)N(C)C(=S)NC1c1ccccc1Cl (stereo not drawn)
→ 1%, ?, -6, 0%
81	O=C(O)Cn1c(-c2ccccc2)cc2ccccc21
→ 0%, 3.9%, ., -13%
82	Cc1cccc2cc(CN(CC3CCCO3)C(=O)c3cnccn3)c(=O)[nH]c12 (stereo not drawn)
→ -2%, 2.9%, 1, -12%
83	O=C1/C(=C\c2ccco2)SC(=S)N1C1CCS(=O)(=O)C1 (stereo not drawn)
→ 4%, -0.9%, -6, 10%
84	CCSc1nsc(SCC)c1C(N)=O
→ -2%, 7.3%, 8, -3%
85	C/C(=N/NC(=O)c1ccoc1C)c1cccc(NC(=O)C2CC2)c1
→ -62%, 2.2%, -5, -12%
86	Cc1ccc(C)n1-c1sc2c(c1C#N)CCC(C)C2 (stereo not drawn)
→ -7%, 2.4%, 1, 6%

Assay outcomes (PubChem)

A portion of the library (hit frequency here may not be typical).
